Source: PubChem (ICCB-Longwood Screening Facility, Harvard Medical School)
GIV-Gai inh: GIV-Galpha-i interaction inhibition. P08753. Galpha-i3/FITC-GIV peptide fluorescence polarization, 90 min; active compounds read low; scaled: aluminum fluoride 0%, vehicle 100%. percent of control (FP), % (concentration not given with the values). 210,000 compounds, 0.42% hits. AID 1224905;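 active means replicate mean at 85% of control or lower, very high polarization wells dropped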;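 further: wells of about 15 µL received 100 nL stock; the first replicate is given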
Target sequence (P08753 whole entry, looked up): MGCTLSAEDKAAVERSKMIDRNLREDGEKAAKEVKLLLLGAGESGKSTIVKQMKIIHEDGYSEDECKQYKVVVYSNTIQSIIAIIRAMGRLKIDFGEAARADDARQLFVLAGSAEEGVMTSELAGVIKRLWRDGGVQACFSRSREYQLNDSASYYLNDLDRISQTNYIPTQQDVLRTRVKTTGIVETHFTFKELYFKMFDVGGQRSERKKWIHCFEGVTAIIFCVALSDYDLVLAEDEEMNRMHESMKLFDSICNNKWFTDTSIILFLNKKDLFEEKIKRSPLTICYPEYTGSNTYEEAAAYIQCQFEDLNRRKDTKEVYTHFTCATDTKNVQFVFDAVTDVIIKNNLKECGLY
HCMV NEC inh: disrupts HCMV UL50-UL53 complex binding; inhibition, % (no concentration beside the values); HTRF UL50-UL53 interaction, normalized percent inhibition; 190,000 compounds, 0.15% hits; AID 1918969;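 active means both replicates at 50% or more, plus weaker picks with an unusually low signal ratio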;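 further: stock transfer was 100 nL into about 20 µL; 0% = negative control wells and 100% = wells with untagged competitor protein; inactives centre near -12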
Sa growth inh: S. aureus growth inhibition | S. aureus RN4220 growth, OD600, 20 h, 42 °C; active compounds read low | relative growth, % (no concentration beside the values) | 170,000 compounds, 0.53% hits;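 active means growth at 42 °C up to 50% and 20 or more points under that at 30 °C, or under 10% at both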;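 further: 300 nL library stock went into each well; scaled to the means of positive and negative controls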
Sa growth inh second temp: further read-out of Sa growth inh, marked with its call; relative growth, %; measured here: growth at 30 °C;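 optical density after 20 h as mean of two plates; 100% = untreated growth and lower means inhibition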
The depositor's hits bear a star; · = no result given; & = joins results of further samples.

SMILES | GIV-Gai inh | HCMV NEC inh | Sa growth inh | Sa growth inh second temp
O=C(c1cccs1)n1ccc(-c2ccc3c(c2)CCO3)n1 | 100 | -5 | 107 | 88
COc1ccc(-c2nc(N)ncc2-c2ccc3c(c2)OCCCO3)c(O)c1 | 108 | -7 | 98 | 86
Cc1cc(C(=O)Nc2c(C)nn(Cc3ccc(F)cc3)c2C)no1 | 103 | 16 | 95 | 104
CCOC(=O)c1sc(NC(=O)C(CC)OC(=O)c2c3c(nc4ccccc24)CCC3)nc1C (stereo not given) | · | -2 | 87 | 74
O=C(c1cnc2c3ccccc3nn2c1)c1ccccc1O | · | -72 | 79 | 72
O=C1CC2(CCCCC2)Oc2cc(O)ccc21 | 100 | -20 | · | ·
Cc1oc(C(C)(C)C)cc1C(=O)NC1Cc2ccccc2C1 | 103 | -32 | 97 | 89
CNC(=O)c1ccsc1NC(=O)CN1C(=O)c2ccccc2C1=O | 103 | -27 | 90 | 86
O=C(CCNS(=O)(=O)c1ccc2[nH]c(=O)ccc2c1)NC1CCCc2ccccc21 (stereo not given) | 102 | 2 | 101 | 113
Cc1ccc(C(CNC(=O)CCc2ccccc2)N2CCN(C)CC2)cc1 (stereo not given) | 97 | -18 | 110 | 93
COc1ccc(OC)c(/C=C/C(=O)Nc2ccc(C(=O)OCCC(C)C)cc2)c1 | 105 | -54 | 91 | 80
Cc1cc(C)nc(-n2nc(C)c3c2NC(=O)CC3c2ccccc2)n1 (stereo not given) | 107&107 | 11&20 | 101 | 86
COc1cc(C2=C/C(=C3/N=C(c4ccco4)OC3=O)c3ccccc3O2)cc(OC)c1OC | 97 | -37 | 105 | 100
C(=N\c1nc2ccccc2[nH]1)/N(c1ccccc1)c1ccccc1 | · | 3 | 87 | 117
S=c1[nH]nc(CCCc2n[nH]c(=S)o2)o1 | 102 | -7 | 91 | 89
Cc1ccc(NC(=S)Nc2cccc(C(F)(F)F)c2)cc1NS(C)(=O)=O | 69* | 74* | 93 | 68
COc1ccc(C2OC(=O)CC2C(=O)NC2CCCC(C)C2C)cc1OC (stereo not given) | 105 | 3 | 105 | 94
Cc1cc(=O)[nH]c(-n2nc(C)cc2NC(=O)c2ccc(F)cc2)n1 | 100 | -7 | · | ·
COC(=O)c1ccc(/N=C/c2cc(C)n(C3CCCC3)c2C)s1 | · | -2 | 90 | 88
CCCOc1ccccc1C(=O)NCc1csc(-c2ccc(OC)cc2)n1 | 100 | -29 | · | ·
CCOc1ccc(C(=O)Nc2cccc3nsnc23)cc1Br | 94 | -6 | 93 | 93
CCOC(=O)c1sc(NC(=O)COc2ccc3c(c2)OCO3)nc1C | 101 | · | 90 | 77
CC(C)CCNC(=O)c1ccc(CS(=O)c2cccc(Cl)c2)o1 (stereo not given) | 103 | -23 | 103 | 90
COC(=O)c1ccc(CSc2nnc3ccccn23)o1 | · | -15 | 80 | 89
CCCCc1nc2ccccc2n1CC(=O)Nc1ccccc1C | · | -22 | 119 | 85

The closing 5 entries of the part before open the next one:
SMILES | GIV-Gai inh | HCMV NEC inh | Sa growth inh | Sa growth inh second temp
CCOc1ccc(C(=O)Nc2cccc3nsnc23)cc1Br | 94 | -6 | 93 | 93
CCOC(=O)c1sc(NC(=O)COc2ccc3c(c2)OCO3)nc1C | 101 | · | 90 | 77
CC(C)CCNC(=O)c1ccc(CS(=O)c2cccc(Cl)c2)o1 (stereo not given) | 103 | -23 | 103 | 90
COC(=O)c1ccc(CSc2nnc3ccccn23)o1 | · | -15 | 80 | 89
CCCCc1nc2ccccc2n1CC(=O)Nc1ccccc1C | · | -22 | 119 | 85
CCCCNC(=O)c1ccc(-n2nnc3cccnc32)cc1 | 109 | -38 | · | ·
O=C1CN(CC(=O)Nc2ccc(Cl)cc2)CCN1 | · | -10 | 69 | 87
O=C(c1ccccc1)C(Nc1ccccn1)c1ccccc1 (stereo not given) | 100 | 12 | 110 | 68
CCc1ccc(C(=O)NC(CC(C)C)C(=O)O)cc1 (stereo not given) | 96 | -3 | 100 | 107
CC(OC(=O)c1cccs1)C(=O)NCC1CCCO1 (stereo not given) | 104 | -27 | 115 | 77
CC1(C)Cc2nc3n[nH]c(N)c3cc2CO1 | 106 | 12 | 95 | 102
Cc1c(C(=O)N=Nc2c(O)n(CC(=O)O)c3ccccc23)nnn1-c1nonc1N | 102 | -170 | 78 | 69
CCOc1ccccc1-n1nnc(S(=O)(=O)c2ccc(C)cc2)c1N | 105 | 13 | 99 | 90
CC1CCN(C(=O)C23CCC(C)(C(=O)O2)C3(C)C)CC1 (stereo not given) | 108 | -17 | 100 | 95
CN1CCc2c(sc3c2C(=O)NC(c2ccc(OC(=O)c4ccccc4Cl)cc2)N3)C1 (stereo not given) | 159 | · | 108 | 87
Cc1ccc(S(=O)(=O)NCCSc2nncn2-c2ccc(C)c(Cl)c2)cc1 | · | 3 | 101 | 86
O=C1CN(C(=O)c2ccc(Cl)cc2Cl)C(c2ccc(F)cc2)c2cc(F)ccc2N1 (stereo not given) | 99 | -22 | 98 | 82
CCn1c(CNC(=O)c2ccco2)nnc1SC(C)C(=O)Nc1nc(C)c(C)s1 (stereo not given) | 104 | · | 91 | 85
CCSc1ncc2c(=O)n(CC(=O)NC(C)CC)cnc2n1 (stereo not given) | 109 | -2 | · | ·
COc1cc2c(cc1OC)CN(Cn1cnc3ccccc31)CC2 | · | -18 | 104 | 92
CCc1ccc(C(=O)Nc2ccc(N3CCCC3)cc2)cc1 | 114 | -32 | 102 | 99
CC(C)Cc1ccc(S(=O)(=O)Nc2cc(C(=O)O)cnc2N(C)C)cc1 | 101 | -20 | · | ·
O=C1/C(=C/c2ccc(O)cc2)SC(=S)N1CCc1ccccc1 | -5.9* | · | 95 | 58
CCCc1c(C)[nH]c2nc3ccccc3n2c1=O | · | -6 | 114 | 82
CC1CCN(C(=S)Nc2ccccc2)CC1 | 103 | -18 | 99 | 98
COc1ccc(N2C(=O)Cc3cc(OC)c(OC)cc3C2c2ccc(F)cc2)cc1 (stereo not given) | 99&103 | -16&-7 | 113 | 83
CCOC(=O)c1sc(NC(=O)c2cc3n(n2)C(C(F)(F)F)CC(c2ccc4c(c2)OCO4)N3)c(C(=O)OCC)c1C (stereo not given) | 90 | -17 | · | ·
CCOc1ncccc1C(=O)Nc1cccc(Cl)c1Cl | · | 1 | 95 | 100
O=S(=O)(c1ccccc1)N1CCN(c2cc(C(F)(F)F)nc3ccccc23)CC1 | 99 | 3 | 85 | 86
CCOC(=O)Cn1c(=O)oc2cc(S(=O)(=O)N3CC(C)CC(C)C3)ccc21 (stereo not given) | 107 | -8 | 109 | 97

Sorted by the number under GIV-Gai inh (rising): three of the compounds above.
Molecule | GIV-Gai inh
O=C1/C(=C/c2ccc(O)cc2)SC(=S)N1CCc1ccccc1 | -5.9*
O=C1CN(C(=O)c2ccc(Cl)cc2Cl)C(c2ccc(F)cc2)c2cc(F)ccc2N1 (stereo not given) | 99
CC(C)Cc1ccc(S(=O)(=O)Nc2cc(C(=O)O)cnc2N(C)C)cc1 | 101

Going on with the list:
SMILES | GIV-Gai inh | HCMV NEC inh | Sa growth inh | Sa growth inh second temp
CCOC(=O)c1ccc(NC(=O)c2sc3ccccc3c2Cl)cc1 | 108 | -72 | 96 | 92
COc1cc(CNCc2ccc(C)cc2)cc(OC)c1 | 100 | -8 | 103 | 82
CC1CCCCN1C(=O)CSc1ccc2ccccc2c1 (stereo not given) | · | -34 | 137 | 102
O=C(N[C@@H](Cc1ccccc1)C(=O)Nc1nccs1)c1cccs1 | · | -3 | 100 | 96
O=C1N(CN2CCCCC2)c2ccc(Br)cc2C12OCCO2 | 107 | -26 | 94 | 88
O=C(Nc1c2c(nn1-c1ccccc1)CSC2)C1CC(=O)N(c2ccccc2)C1 (stereo not given) | 103 | -46 | 79 | 63
O=C(/C=C/c1ccccc1F)CN1C(=O)c2ccccc2C1=O | · | -11 | 94 | 99
O=C(NC1CCCCC1)c1ccc2c(c1)N(Cc1ccc(Cl)cc1)C(=O)c1ccccc1S2=O (stereo not given) | 105 | -36 | 106 | 92
COc1ccc2[nH]c3c(=O)n(Cc4ccccc4Cl)cnc3c2c1 | 107 | 0 | 83 | 81
Cc1cc(NC(=O)c2oc3c(c2C)-c2[nH]ncc2CC3)ccc1Br | 97 | -14 | 106 | 59
CCOC(=O)c1c(S(=O)(=O)N2CCC(C(=O)NCc3cccc(OC)c3)CC2)c(C)n(C)c1C | 103 | · | 114 | 85
CC1CCC(NC(=O)C2(C)Cn3c(nc4ccccc43)C(=O)N2CCCOC(C)C)CC1 (stereo not given) | 102 | 30 | · | ·
CCN(CC)C(=O)c1oc2ccccc2c1NC(=O)C(C)C | 100 | 6 | 91 | 102
Cc1cc(NC(=O)CN2CCCCC2)nc2c1c(=O)oc1ccccc12 | 101 | -9 | 100 | 85
COc1ccccc1N1CCN(C(=O)/C=C/c2c(Cl)nc3sccn23)CC1 | · | -66 | 63 | 61
CC(C)(C)c1cc(CN2CCCC2)cc(C(C)(C)C)c1O | 101 | -3 | 97 | 111
Cc1ccccc1C(=O)Nc1nnc(SCc2cc(=O)n3ccccc3n2)s1 | 103 | · | 85 | 90
O=C(c1ccc2c(c1)OCO2)N1CCN(c2ccc(-c3noc(C4CCC4)n3)cc2)CC1 | 103 | -39 | · | ·
O=C(c1cn(-c2ccccc2)nc1-c1cccs1)N(CCO)Cc1ccccc1 | · | -7 | 86 | 89
CN1C(=O)C(c2c(-c3ccc(Br)cc3)[nH]c3[nH]c(=O)[nH]c(=O)c23)c2ccccc21 (stereo not given) | 106 | -22 | · | ·
Cc1cc2n(n1)CCC(=O)N2Cc1ccc(C(=O)Nc2cccc(C(F)(F)F)c2)cc1 | 102 | · | 87 | 70
CCc1ccc(NC(=O)NCc2c(-n3cccc3)sc3c2CCCC3)cc1 | 107 | -23 | 79 | 86
O=C(Cn1ncc2c3ccccc3n(Cc3cccc(Cl)c3)c2c1=O)NCc1cccs1 | 194 | -28 | 98 | 80
Cc1nn(CCC(=O)NC(C)C)c(=O)c2nn(-c3ccccc3)c(C)c12 | 100 | · | 82 | 93
CCN1CCN(c2nc3ncn(CC(=O)Nc4ccccc4)c(=O)c3s2)CC1 | 105 | -12 | · | ·

Entries from the list above with a COOH group:
SMILES | GIV-Gai inh | HCMV NEC inh | Sa growth inh | Sa growth inh second temp
CCc1ccc(C(=O)NC(CC(C)C)C(=O)O)cc1 (stereo not given) | 96 | -3 | 100 | 107
Cc1c(C(=O)N=Nc2c(O)n(CC(=O)O)c3ccccc23)nnn1-c1nonc1N | 102 | -170 | 78 | 69
CC(C)Cc1ccc(S(=O)(=O)Nc2cc(C(=O)O)cnc2N(C)C)cc1 | 101 | -20 | · | ·

The list continues.
SMILES | GIV-Gai inh | HCMV NEC inh | Sa growth inh | Sa growth inh second temp
O=C(NCC1COc2ccccc2O1)c1cc(Cl)sc1Cl (stereo not given) | 102 | 30 | 97 | 95
Cc1ccc(S(=O)(=O)n2nc(-c3ccc(Cl)cc3)nc2NCc2ccccc2)cc1 | 105 | -1 | 97 | 100
Cc1csc(=O)n1CC(=O)NC1CCCCCC1 | · | -41 | 105 | 79
CCN(CC(=O)NC1CCS(=O)(=O)C1)C(=O)Cc1ccccc1F (stereo not given) | · | -23 | 81 | 89
CCN(CC)S(=O)(=O)c1ccc(Sc2nc(C)cs2)nc1 | · | 0 | 110 | 95
Cc1cc2nc(N(Cc3cccnc3)C(=O)c3ccc(Cl)s3)sc2cc1C | 98 | · | 97 | 95
Cc1ccc(C(=O)NC(C)Cc2cccs2)c(C)c1 (stereo not given) | · | -30 | 112 | 91
Cc1ccc(C(F)(F)C(F)(F)c2ccccc2-c2nn[nH]n2)cc1 | · | -11 | 122 | 108
CCC(=O)Oc1ccc2c(C(F)(F)F)cc(=O)oc2c1C | 98 | -58 | 65 | 20
Cc1cccc(Cl)c1N1C(=O)C(CC(=O)O)SC1=NC1CCCC1 (stereo not given) | 98 | -6 | 99 | 32
CC(Nc1nc(-c2ccccc2)c2cc(Br)ccc2n1)C(=O)O (stereo not given) | 106 | · | 98 | 69
OC1(c2ccccc2)CCN(Cc2ccccc2)CC1 | 102 | -21 | 96 | 105
Cc1ccc2c(CC(=O)Nc3sc4c(c3C(=O)NCC3CCCO3)CCC4)coc2c1C (stereo not given) | 105 | -25 | · | ·
COc1ccc(CNC(=O)c2cc(=O)[nH]c3ccc(S(=O)(=O)N4CCCCC4C)cc23)cc1 (stereo not given) | 103 | · | 124 | 92
Cc1ccc(CN2CCN(C3CCN(S(=O)(=O)c4cc(C)ccc4C)CC3)C(=O)C2=O)cc1 | 98 | -31 | · | ·
Clc1ccc(-c2csc3[n+]2CCS3)cc1 | · | -30 | 127 | 70
CCOC(=O)c1cccc(NC(=O)c2sc3nc[nH]c(=O)c3c2C)c1 | 92 | · | 108 | 92
O=C(OC1CCOC1=O)c1cccc(Cl)c1Cl (stereo not given) | · | -27 | 128 | 85
COC(=O)c1ccc(NC(=O)c2sc3nc(C)cc(=O)n3c2C(=O)Nc2cccc(OC)c2)cc1 | 104 | -9 | · | ·
NC(=O)C1CCN(C(=O)c2cc(-c3ccccc3)on2)CC1 | 98 | 10 | 102 | 74
CSc1nc(C)cc(=O)[nH]1 | · | -24 | 139 | 91
